# Menin MLL FP FL = inhibitors of human menin-MLL interaction, wild-type MLL peptide; Fluorescence polarization, fluorescein-MLL peptide displacement from menin; FP activity change, % at 61.4 µM; 290,000 tested, under 10 active; inconclusive = falling polarisation curve, or a change in total fluorescence; inactive = total fluorescence flat and polarisation flat or rising; no compound was filed as active; the % refers to the polarisation; negative = inhibition;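 note: % of control where 0% means no effect; inhibitors lower the polarisation; unlabelled MLL peptide was the positive control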
# Sfp inh = blocks B. subtilis Sfp PPTase activity | Q9F4F7 | Biochemical Sfp PPTase activity, qHTS | Potency, µM, for inactives: max response, negative = inhibition, actives largely listed as inhibitors | actives 3.5% (n = 310,000) | AID 1490; active = well fitted inhibition curve with a large enough effect; inconclusive = small, poorly fitted or top-dose-only effect, or another doubt; inactive = no such curve, though single readings can be large or run the other way;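 note: the enzyme is Sfp with the accession as filed and its product quenches rhodamine fluorescence; potency is the fitted concentration of half-maximal effect; 0% = enzyme reaction without inhibitor and -100% = no enzyme wells; top concentration of the series not given in the record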
#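 Fluorescence-quenching assay with 15 nM Sfp, 5 uM rhodamine-CoA and 12.5 uM BHQ-2-labelled ybbR peptide in pH 7.6 Hepes/MgCl2 buffer. Enzyme was pre-incubated with compound for 15 min at room temperature. Rate was taken from the 30-min fluorescence change (525/598 nm).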
# TRPML1 blocker = inhibitors of human TRPML1 channel | Q9GZU1 | actives 0.02% (n = 390,000) | TRPML1-inducible cells, Ca2+ dye fluorescence, FDSS; active compounds read low; inhibition of EC80 agonist-evoked calcium signal | activity change, negative = inhibition, % (no concentration beside the values); in the data active means activity change below about -50%; inconclusive means about -30% to -50%; inactive means above about -30%;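 note: stimulus is agonist 54-4 at its EC80 concentration; % is set by controls: 0 for no effect and ±100 for the full control effect; compound concentration not given in the record; the text of the record puts the active cut at -80%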
#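 Calcium fluorescence in TRPML1-DL cells induced overnight with Tet: a 110 s read after compound pin addition, then a 110 s antagonist read after challenge with 54-4 at 4 uM final (EC80).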
# ClpP mod = qHTS Assay for Activators of ClpP; Potency, µM (top dose mostly 57.5 µM), for inactives: at the highest dose activity change, negative = active; ATP-dependent Clp protease proteolytic subunit (Bacillus subtilis (strain 168)), P80244; purified B. subtilis ClpP, FRET peptide cleavage, 20 min; actives 1.9% (n = 340,000); active = well fitted falling curve with a large enough effect; inconclusive = small, poorly fitted or top-dose-only effect; inactive = no such curve, though single readings can be large or run the other way; note: potency is the fitted concentration of half-maximal effect; the source files actives as falling curves though it sought activators and does not explain the sign; nearly all actives have a fitted effect of over 65% in size; many hits overshoot -100%
# Target sequence (P80244 whole entry, looked up): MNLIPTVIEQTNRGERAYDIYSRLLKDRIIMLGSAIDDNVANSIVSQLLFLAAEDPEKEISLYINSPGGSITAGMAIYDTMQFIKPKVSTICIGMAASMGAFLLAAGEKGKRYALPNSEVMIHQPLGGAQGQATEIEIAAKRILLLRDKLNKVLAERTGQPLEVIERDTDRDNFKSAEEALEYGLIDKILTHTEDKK
#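 Buffer: 100 mM Tris/HCl pH8, 100 mM KCl, 0.05% low protease BSA, 2.5% glycerol, 0.01% Tween-20. ClpP 10 microg/mL final; 20 min RT; delta FRET normalized to ADEP and DMSO controls.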
# PINK1 modulator = PINK1 expression modulation | PINK1 immunofluorescence, high-content cytometry, 24 h | Potency, µM (doses to about 76.6 µM), inactives show top-dose activation (PINK1 increase), most hits filed as activators | actives 0.2% (n = 410,000) | AID 624263; active = well fitted activation curve with a large enough effect; inconclusive = small, poorly fitted or top-dose-only effect; inactive = flat fitted curve, though single readings scatter; cell line not stated here;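 note: potency is the fitted concentration of half-maximal effect; % of control where 0% means no effect; nearly all actives have a fitted effect of over 65% in size; a mitochondrial uncoupler was the plate control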
#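 PINK1 protein, normally rapidly degraded, was detected by immunofluorescence after 24 hour compound treatment of a stable cell line. Titration data (5 concentrations) came from laser-scanning cytometry, with CCCP-treated wells as controls.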
# TRPV1 potentiator = enhances activation of the human vanilloid receptor TRPV1. potentiation, % at 8.33 µM. actives 0.02% (n = 320,000). AID 540277. TRPV1-expressing cells, Fluo-8 calcium influx, capsaicin EC20 potentiation; host cell line not named in the record; control for the full effect not named in the record; active means potentiation above 80%; inconclusive means 30% to 80%; inactive means below 30%; note: 0% is about no effect
# Target sequence (Q8NER1 whole entry, looked up): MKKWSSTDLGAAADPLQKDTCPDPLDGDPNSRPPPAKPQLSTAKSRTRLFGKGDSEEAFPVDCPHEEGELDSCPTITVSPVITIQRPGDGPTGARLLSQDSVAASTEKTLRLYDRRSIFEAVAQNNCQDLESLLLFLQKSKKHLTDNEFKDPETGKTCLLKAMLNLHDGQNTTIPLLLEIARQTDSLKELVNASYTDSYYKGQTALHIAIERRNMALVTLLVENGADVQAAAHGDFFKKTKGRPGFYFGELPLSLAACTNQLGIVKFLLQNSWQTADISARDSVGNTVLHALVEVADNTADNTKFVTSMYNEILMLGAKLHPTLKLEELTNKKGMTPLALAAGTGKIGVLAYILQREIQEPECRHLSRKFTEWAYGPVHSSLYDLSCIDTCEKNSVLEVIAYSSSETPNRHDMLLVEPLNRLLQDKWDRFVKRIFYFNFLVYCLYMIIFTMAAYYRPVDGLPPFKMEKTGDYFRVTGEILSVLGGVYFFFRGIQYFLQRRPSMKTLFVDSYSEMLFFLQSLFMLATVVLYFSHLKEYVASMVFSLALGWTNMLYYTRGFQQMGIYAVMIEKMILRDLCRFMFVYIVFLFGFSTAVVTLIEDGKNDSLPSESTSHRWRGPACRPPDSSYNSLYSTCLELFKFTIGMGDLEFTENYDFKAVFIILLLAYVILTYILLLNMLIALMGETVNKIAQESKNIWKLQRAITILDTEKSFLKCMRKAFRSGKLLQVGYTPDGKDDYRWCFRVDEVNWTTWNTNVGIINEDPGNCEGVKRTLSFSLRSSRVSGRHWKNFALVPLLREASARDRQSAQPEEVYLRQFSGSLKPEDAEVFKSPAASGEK
#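 Cells expressing TRPV1 were dye-loaded with Fluo-8 and read kinetically: 10 s baseline, 3 min after compound (agonist portion), then 2 min after EC20 capsaicin (allosteric enhancer portion). Calcium-bound dye fluorescence at 480/520 nm.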
# TRPML1 ag = human mucolipin-1 channel agonism; Q9GZU1; TRPML1-expressing cells, Ca2+ dye fluorescence, FDSS; host cell line not named in the record; reference of the full effect not given here; actives 0.12% (n = 410,000); activation, % (no concentration beside the values); in the data active = activation above about 50%; inconclusive = about 30% to 50%; inactive = below about 30%; note: 0% is about no effect; the text of the record puts the active cut at 80%
#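 In this qHTS format, compounds were pin-transferred onto Ca8-dye-loaded TRPML1-DL cells induced with Tet overnight, and intracellular Ca2+ fluorescence was recorded kinetically for 110 s after a 10 s baseline. A subsequent 4uM final 54-4 (EC80) addition followed by a second 110 s read served as the antagonist phase.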
# The depositor's hits bear a star; ? = inconclusive; . = no result given; & = joins results of further samples; [ ] = remark or other dose.
SMILES,Menin MLL FP FL,Sfp inh,TRPML1 blocker,ClpP mod,PINK1 modulator,TRPV1 potentiator,TRPML1 ag
CC(=O)c1cccc(NC(=O)CO/N=C2/CCCc3nonc32)c1,-5.2,12%,-5,-0.9%,4.8%,-11,-0.2
N#Cc1c(Cl)cccc1Oc1ccc(S(=O)(=O)Nc2ccccc2)cc1,-1.0,4%,35,.,-0.6%,-10,-0.1
O=C1CC(c2ccco2)CC(O)=C1C=NCCO (stereo not drawn),-11,?,2,-2.2%,-0.3%,-3,0.2
Cc1cc(C)c(-c2cc(C(=O)Nc3cc(C)ccc3C)[nH]n2)c(O)c1,1.6,6%,-12,-2.1%,9.0%,?,1.2
Cc1ccc(-n2cc(CNCCCn3ccnc3C)c(-c3ccc(F)cc3)n2)cc1,0.7,-12%,30,-0.2%,-1.0%,-2,0.3
Cc1cccc(C(=O)Nc2ccc3ccccc3c2)c1,-7.9,-8%,38,-2.2%,0.9%,-3,0.8
CC(C)N(Cc1nccn1C)C(=O)CC1C(=O)NCCN1Cc1ccc(F)cc1 (stereo not drawn),.,-8%,-2,-5.8%,0.9%,17,-0.2
COc1ccc(N2CCN(C(=O)c3cnn(-c4ccc(OC)cc4)c3C3CCN(C(=O)OC(C)(C)C)CC3)CC2)cc1,.,.,1,0.8%,0.8%,.,0.7
CCN1C(=O)/C(=C\N2CCN(c3ccccc3)CC2)SC1=S,4.1,-9%,0,0.2%,-1.2%,-2,-0.4
COc1ccc(CNC(=O)c2ccccc2NC(=O)C2=CSCCO2)c(OC)c1,.,3%,1,-8.9%,4.6%,26,-0.1
Cc1cc(C(=O)COC(=O)c2ccc[nH]c2=O)c(C)n1-c1ccccc1F,0.2,-9%,1,-1.2%,0.0%,-21,-1.0
OCCCn1c(-c2ccccc2)nc(=S)c2c1CCCC2,-0.9,?,-5,1.1%,-2.0%,-15,-0.4
Cc1cc(C)n2nc(C(=O)N/N=C/c3ccco3)nc2n1,4.4,22%,-9,-3.8%,6.3%,4,-0.5
COc1ccc2[nH]c3c(c2c1)CCN1C(=O)N([C@@H](C)C(=O)NCCc2ccc(OC)c(OC)c2)C(=O)[C@]31C,-3.5,9%,.,-6.4%,1.6%,-3,.
COc1ccc(-c2nc(SCC(=O)NCC3CCCO3)c(-c3ccc(C)cc3)[nH]2)cc1OC (stereo not drawn),.,.,35,?,1.0%,.,-1.0
Cc1ccc(C(C)C)c(OCC(=O)N2CCC(c3nc4ccccc4o3)CC2)c1,.,.,3,1.9%,1.3%,.,5.0
O=C(CCCn1c(=O)[nH]c2ccsc2c1=O)NCc1cccs1,0.8,-2%,-8,-3.8%,1.8%,-4,-0.6
Cc1nc(N2CCN(C(=O)c3ccco3)CC2)c2c3c(sc2n1)CC(C)CC3 (stereo not drawn),4.0,?,53,-3.7%,0.1%,-8,1.9
COc1cccc(NC(=O)n2ncc3c(C)cccc32)c1,0.1,-4%,-2,-4.1%,-0.9%,-2,0.9
Cc1ccc(NC(=S)N/N=C2/CCCCc3ccccc32)cc1,3.0,6%,16,-1.7%,2.7%,15,2.1
CCc1cccc(Nc2cnn(C34C[C@@H]5C[C@@H](CC(CC(=O)O)(C5)C3)C4)c(=O)c2Cl)c1,2.8,23%,-16,.,0.2%,-6,1.0
Cc1ccc(S(=O)(=O)N2CCN(C(=O)COC(=O)c3cc(C)oc3C)CC2)cc1,1.2,5%,-12,-0.6%,-0.7%,2,4.2
CC(=O)N(CC(=O)O)c1ccccc1,5.1,18%,-16,18µM*,-0.2%,-6,0.2
CCOC(=O)N1CCN(C(=O)c2ccc3c(c2)N(Cc2ccc(F)cc2)CCS3)CC1,-1.7,-5%,25,4.2%,0.8%,-18,0.2
Cc1ccc(NC(=O)C2(C)CCN2C(=O)Cc2ccc(C(C)(C)C)cc2)cc1C (stereo not drawn),.,.,.,3.5%,17%,.,-0.3
COc1ccc(C2c3c(-c4ccccc4O)n[nH]c3C(=O)N2Cc2ccco2)cc1OC (stereo not drawn),-2.9,-9%,19,.,4.2%,-2,2.7
O=C(NC(=S)Nc1ccc(N2CCCCC2)cc1)c1ccc2c(c1)OCCO2,2.6,-20%,-5,0.9%,14%,11,0.2
O=C(NCc1ccccc1)c1cccc(COc2ccc3c(c2)CCC3)c1,-0.4,16%,41,-1.3%,-2.1%,3,1.3
Cc1ccccc1C(=O)NNC(=O)c1cc(N)cc([N+](=O)[O-])c1,0.3,-21%,2,0.9%,-1.5%,2,-0.5
COc1ccc2c(c1[N+](=O)[O-])CCC/C2=N/OC(=O)c1ccccc1SC,0.7,6%,23,2.4%,7.9%,19,0.2
COc1ccc(NC(=O)N2CCCC3(CCN(C(C)=O)CC3)C2)cc1,2.3,-1%,.,.,-0.5%,.,.
CCC(=O)Nc1ccc(CCC(=O)N2CCCC2)cc1,-2.5,10%,.,-1.1%,0.3%,4,.
COc1ccc(NS(=O)(=O)c2ccc3c(c2)[C@H]2C=CC[C@H]2[C@@H](c2ccc(C(=O)O)cc2)N3)cc1,5.9,-28%,16&-14,-1.5%&0.1%,-0.2%&1.8%,0,4.0&-0.7
Cc1cc(Nc2nnnn2-c2ccccc2)n(-c2ccc(Cl)cc2)n1,3.4,1%,0,-3.8%,?,-4,-0.3
CC(C)n1nnnc1-c1ccc(Cl)cc1,-3.5,12%,13,.,-2.4%,7,1.7
CC(=O)Nc1ccc(NC(=O)C(C)OC(=O)CC2CCCCC2)cc1 (stereo not drawn),.,.,14,-1.6%,5.8%,?,1.6
O=C(Nc1cc(Cl)cc(Cl)c1)C1C2C=CC3(O2)C1C(=O)N(CCCN1CCOCC1)C3C(=O)NC1CCCCC1 (stereo not drawn),4.2,7%,-6,.,2.3%,-7,-0.2
Cc1cc(C)nc(NS(=O)(=O)c2ccc(NC(=O)c3ccccc3C)cc2)n1,-2.6,2%,16,-0.2%,-1.2%,6,-0.2
CCc1nnc(NC(=O)CS(=O)(=O)c2ccccc2)s1,2.3,-11%,33,.,-0.6%,5,0.0
CC(=O)c1ccccc1C(=O)N1CCCC(CCC(=O)N2CCN(c3ccccn3)CC2)C1 (stereo not drawn),.,-8%,-3,?,0.0%,4,-0.2
CCOc1ccccc1-n1nnc(-c2nsc(NC(=O)c3ccc(C)cc3)n2)c1C,.,.,-9,-10%,9.2%,.,0.5
Cc1cccc(-c2nnn3c2nc(NCCc2ccc(S(N)(=O)=O)cc2)c2ccccc23)c1,6.9,-22%,-18&-10,11µM*,0.0%&3.2%,5,-1.4&-0.5
CCOC(=O)c1c(NC(=O)CN(C)C)sc(C(=O)N(CC)CC)c1C,1.8,-29%,-15,-0.7%,-0.1%,-1,-0.6
CNc1ccnc(-c2c(C)noc2C)n1,-0.2,12%,.,.,2.4%,.,.
C=CCNC(=S)N/N=C/c1ccc(-c2cccc([N+](=O)[O-])c2)o1,2.2,1%,9,0.7%,4.8%,6,1.0
CCN(CC(=O)Nc1c(F)cccc1F)C(=O)c1ccc(N2CCCC2=O)cc1,.,.,-2,.,-3.0%,29,0.5
COc1c(O)cccc1/C=N/NC(=O)Cn1ccnc1C,2.4,14%,16,-6.1%,2.6%,3,0.1
S=C(NCCc1ccccc1)Nc1ccccc1,-0.6,-1%,13,.,-0.6%,-24,1.1
O=S(=O)(CCN1CCCCC1)Oc1ccc(Cl)cc1Cl,0.9,1%,14,-0.4%,1.2%,-2,-0.6
Cc1ccc(Cl)c(NC(=O)CN2CCN(C=O)CC2)c1,0.0,5%,.,.,.,6,.
O=C1Nc2ccccc2Oc2cc(Oc3ccccc3)ccc21,.,.,-16,3.8%&3.8%,1.6%&1.1%,-5,3.2&-0.9
COc1ccc(NC(=O)CC2SC3=NCCN3C2=O)cc1 (stereo not drawn),-0.9,2%,6,.,0.1%,-7,-0.9
COC(=O)NNC(=O)c1ccc(Cl)cc1Cl,-1.0,-1%,3,1.1%,2.2%,2,-0.1
COc1ccc(CC(=O)Nc2cccc(C)n2)cc1OC,0.0,6%,-7,.,5.7%,-11,-0.3
CCCNc1nc2c(c(=O)n(C)c(=O)n2C)n1CCC(C)C,1.3,14%,43,-2.7%,0.4%,-6,-0.7
COc1ccccc1-c1c(C(F)(F)F)oc2cc(OCC(=O)Nc3cc(C)ccc3C)ccc2c1=O,2.9,17%,.,.,.,0,.
CC(=O)N1CCC(O)(c2cccc(C(F)(F)F)c2)CC1,-1.8,6%,2,0.7%,0.5%[38.3 µM],-19,-0.5
CC(C)Oc1ccc(C(=O)N2CCN(c3nc4c(F)cc(F)cc4s3)CC2)cc1,.,.,29,1.7%,-1.1%,.,-0.5
COc1ccc(-c2nn(-c3ccccc3)cc2C(=O)Nc2ccc(C(=O)O)cc2)cc1,-1.9,9%,-10,.,0.6%,-8,0.0
CCOC(=O)c1cnc2ccccc2c1Nc1cccc(C(=O)O)c1,2.1,18%,-2,.,0.4%,-16,0.0

# Three entries from above, ordered by the value under TRPML1 blocker, descending:
smiles,TRPML1 blocker
CC(C)Oc1ccc(C(=O)N2CCN(c3nc4c(F)cc(F)cc4s3)CC2)cc1,29
S=C(NCCc1ccccc1)Nc1ccccc1,13
CCOC(=O)c1cnc2ccccc2c1Nc1cccc(C(=O)O)c1,-2

# The results go on.
SMILES,Menin MLL FP FL,Sfp inh,TRPML1 blocker,ClpP mod,PINK1 modulator,TRPV1 potentiator,TRPML1 ag
CCOC(=O)c1c(C)n(-c2ccccc2)c2ccc(OC(=O)c3c(F)cccc3F)cc12,.,.,-3,4.5%,1.8%,.,1.2
O=C(Nc1ccc(F)cc1F)C1(c2cccs2)CCOCC1,-3.2,4%,.,-0.1%,-0.4%,4,.
O=C(Nc1cccc2ccccc12)N1CCOCC1,-0.9,16%,8,25µM*,3.4%[38.3 µM],-15,0.3
CC(=O)Oc1ccccc1-c1nc(/C=C/c2ccccc2)no1,-8.5,-16%,30,?,5.9%,-7,1.4
CCN1CCCC1CNCc1cccc(OC)c1OCc1ccccc1F (stereo not drawn),1.8,5%,0,0.5%,?,18,-0.7
Cc1ccccc1C(=O)Nc1ccc(CN2CCOCC2)cc1,1.0,25%,-8,-1.7%,0.4%,1,-0.2
Cc1cc(NC(=O)CCC(=O)N(CC(=O)NC2CCCC2)c2ccc(F)cc2)no1,.,17%,3,.,0.2%,2,0.2

# Bioassay records as filed in PubChem BioAssay.
